MT1-MMP txn act: MT1-MMP promoter reporter activation – cell-based, luciferase luminescence, primary screen; activation factor at 10 µM; HT1080 MT1-MMP promoter luciferase reporter, overnight; stronger effect = higher value; actives 0.16% (n = 86,000);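 active = activation factor of at least 2 for MT1-MMP transcription at 10 µM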
ERa SRC1 pot: enhancers of ERα–SRC-1 coactivator binding, primary screen, biochemical, TR-FRET, ERα LBD, low estradiol; Estrogen receptor (Homo sapiens), P03372; TR-FRET ERalpha-LBD/SRC-Cy5 coactivator binding, 2 h; 100 = basal binding, no effect; coactivator binding (% of control), % at 25.6 µM; actives 1.3% (n = 86,000); in the data active = activity above about 200%;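 note: binding measured in presence of low estradiol as agonist stimulus; 0% = peptide alone without receptor and 100% = receptor with peptide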
Calb biofilm kill: clotrimazole potentiators killing Candida biofilms, primary screen, with clotrimazole, Alamar Blue | C. albicans biofilm + clotrimazole | inhibition, % at 6 µM | actives 0.14% (n = 85,000);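 active = inhibition above 20%; inactive = inhibition below 20%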;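 note: preformed 24 hr biofilms exposed to compound for 48 hr; 0% = biofilm without compound and 100% = blank killed by clotrimazole plus chlorhexidine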
Mac1 fbg inh: inhibitors of CD11b/CD18 adhesion to fibrinogen, primary screen, K562 cells, luminescence. Integrin beta-2 (Homo sapiens) + Integrin alpha-M (Homo sapiens), P05107+P11215. inhibition, % at 10 µM. actives 0.54% (n = 93,000). ATPlite luminescence; Mn2+ added to activate the integrin;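 active = primary inhibition of 50% or more at 10 µM, then 40% or more on retest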; note: some results filed as inactive read as strong as hits
Mac1 fbg enh: enhancers of CD11b/CD18 adhesion to fibrinogen, primary screen, K562 cells, luminescence. Integrin beta-2 (Homo sapiens) + Integrin alpha-M (Homo sapiens), P05107+P11215. ATPlite luminescence. activation, % at 10 µM. actives 0.07% (n = 93,000);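 active = 10 µM primary screen giving 50% or more activity, confirmed by 40% or more on retest at that dose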; note: strong numbers were not always called active; reference of the scale not given here
ERb SRC1 inh: inhibitors of ERβ-SRC1 coactivator interaction, primary screen, biochemical, TR-FRET, ERβ LBD, SRC-1 peptide; AID 633, 2007; Estrogen receptor beta (Homo sapiens), Q92731; TR-FRET ER-beta LBD / SRC1-Cy5 peptide binding; receptor agonist-loaded with 1 µM estradiol; actives 1.3% (n = 86,000); inhibition, % at 25.6 µM;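 active = compounds whose percent inhibition of the receptor-coactivator binding signal exceeds about 50% in the single-dose screen, limit read from the data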;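 note: 0% = receptor plus peptide wells without compound and 100% = peptide-only wells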
Target sequence (Q92731 whole entry, looked up, the tested form may be a part): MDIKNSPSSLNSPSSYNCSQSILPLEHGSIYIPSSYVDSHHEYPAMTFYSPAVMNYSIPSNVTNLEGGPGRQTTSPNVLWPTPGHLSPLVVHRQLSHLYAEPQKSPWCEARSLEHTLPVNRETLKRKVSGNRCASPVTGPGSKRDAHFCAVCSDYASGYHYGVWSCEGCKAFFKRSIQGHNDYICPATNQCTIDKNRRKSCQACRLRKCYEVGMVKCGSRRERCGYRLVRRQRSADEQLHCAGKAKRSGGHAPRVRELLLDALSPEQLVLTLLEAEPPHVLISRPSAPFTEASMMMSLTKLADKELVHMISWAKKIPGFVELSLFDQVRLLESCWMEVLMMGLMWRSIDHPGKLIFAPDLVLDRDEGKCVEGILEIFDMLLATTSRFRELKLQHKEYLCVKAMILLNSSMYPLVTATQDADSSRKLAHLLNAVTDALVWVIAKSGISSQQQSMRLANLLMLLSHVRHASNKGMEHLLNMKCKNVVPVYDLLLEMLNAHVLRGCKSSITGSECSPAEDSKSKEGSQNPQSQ
Smad3 inh: Smad3/FoxH1 peptide binding inhibitors, primary screen, biochemical, TR-FRET; AID 630, 2007; Mothers against decapentaplegic homolog 3 (Homo sapiens), P84022; inhibition, % at 25 µM; actives 0.29% (n = 88,000); TR-FRET Smad3/Dy647-FoxH1 peptide binding, europium anti-His;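 active = compounds that reduce the energy-transfer binding signal between the protein and its labelled peptide by more than half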;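 note: 0% = Smad3 plus labelled peptide maximal FRET and 100% = peptide-only background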
Target sequence (P84022 whole entry, looked up): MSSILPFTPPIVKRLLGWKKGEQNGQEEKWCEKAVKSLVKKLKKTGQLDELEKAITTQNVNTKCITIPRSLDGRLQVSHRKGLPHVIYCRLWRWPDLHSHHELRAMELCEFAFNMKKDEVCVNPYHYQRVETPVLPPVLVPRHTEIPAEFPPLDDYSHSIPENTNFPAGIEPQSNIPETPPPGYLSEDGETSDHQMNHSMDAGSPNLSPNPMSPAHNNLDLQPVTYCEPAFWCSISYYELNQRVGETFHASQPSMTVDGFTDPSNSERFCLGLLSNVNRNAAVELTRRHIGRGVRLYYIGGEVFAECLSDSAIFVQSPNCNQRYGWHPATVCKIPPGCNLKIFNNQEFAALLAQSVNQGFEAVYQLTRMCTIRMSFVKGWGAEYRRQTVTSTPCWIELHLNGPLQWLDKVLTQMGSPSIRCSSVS
* = called active by the depositor; . = not tested or not shown; [ ] = dose if it differs, or a comment.

item	SMILES	Smad3 inh	ERb SRC1 inh	Mac1 fbg enh	Calb biofilm kill
1	CCN1CCCC1CNS(=O)(=O)c1ccc(C(=O)Nc2ccccc2)cc1 (centres undefined)	-5	19[fluorescence artefact?]	-2	9
2	CCOC(=O)C(=O)Nc1ccc(S(=O)(=O)N2CCOCC2)cc1OC	.	.	-1	.
3	CCOC(=O)CN(C(=O)c1ccccc1)c1ccccc1C	-10	0[fluorescence artefact?]	0	-5
4	COc1ccc(CNc2cccc(F)c2)cc1Br	9	-5	-3	0
5	CCCCNc1nc2c(c(=O)n(C)c(=O)n2C)n1Cc1cccc(OC)c1	-1	-7	.	4
6	COc1ccccc1NC(=O)C1CCN(c2ncccn2)CC1	7[fluorescence artefact?]	-5	-1	7
7	COc1ccc(C(C#N)Nc2ccc(C)cc2)cc1 (centres undefined)	7	-7	-1	6
8	C=CCn1c(CCNC(=O)c2ccccc2F)nnc1SCC(=O)Nc1nc(C)cs1	16	-5	6	0
9	CCCCOc1ncnc2c1[nH]c1ccc(OCC)cc12	-15	-4	-1	2
10	COc1cc2c(cc1OC)CN(C(=O)c1ccc(OC)c(S(=O)(=O)N3CCOCC3)c1)CC2	-15	3	2	9

item	ERa SRC1 pot	MT1-MMP txn act	Mac1 fbg inh
1	102	1	2
2	.	.	-4
3	105	1.1	-24
4	101	1.1	6
5	122	0.9	.
6	116	1	4
7	113[fluorescence artefact?]	0.9	-8
8	124	1.2	-4
9	103	1.3	5
10	104	1.2	-13

Following part:
item	SMILES	Smad3 inh	ERb SRC1 inh	Mac1 fbg enh	Calb biofilm kill
11	NS(=O)(=O)c1ccc(CNC(=O)NC23CC4CC(CC(C4)C2)C3)cc1	-4	-14	0	-2
12	CCOC(=O)Cc1csc(NC(=O)c2cccnc2)n1	3	-5	4	10
13	O=C(NC1(C(F)(F)F)C(=O)Nc2c1c(=O)[nH]c(=O)n2-c1ccccc1)c1ccncc1 (centres undefined)	-11	-9	.	6
14	COC(=O)[C@H](CC(C)C)NC(=O)NC1CCCc2ccccc21 (some centres undefined)	6	-6	1	.
15	CCC(C)(C)n1nnnc1CN1CCN(c2nc3cc(OC)ccc3cc2C#N)CC1	12	18	0	6
16	Cn1c(=O)c2c(nc(NC3CCCCC3)n2Cc2ccccc2)n(C)c1=O	2	-1	.	7
17	O=C(NC1CCCC1)C1CCCN(S(=O)(=O)c2cnc[nH]2)C1 (centres undefined)	-10	34	-1	7
18	CCOc1ccc(C=NC23CN4CN(CN(C4)C2)C3)cc1	.	.	6	.
19	CCCN1C(=O)c2ccc(C(=O)NC3CCCCC3)cc2C1=O	-4	-4[fluorescence artefact?]	-1	-2
20	COC(=O)c1cccc(NC(=O)c2ccc(S(=O)(=O)N3CCN(C)CC3)cc2)c1	6[fluorescence artefact?]	-3	-2	2

item	ERa SRC1 pot	MT1-MMP txn act	Mac1 fbg inh
11	124	1	-4
12	113	1	17
13	111	1.1	.
14	127	1.2	-5
15	198	1	-4
16	106	1.1	.
17	76	1	-4
18	.	.	-13
19	125	1.1	10
20	100	1.2	-9

(next part)
item	SMILES	Smad3 inh	ERb SRC1 inh	Mac1 fbg enh	Calb biofilm kill
21	Cc1ccc(-c2cc(C(=O)N3N=C(C(F)F)CC3(O)C(F)F)c3ccccc3n2)cc1C (centres undefined)	.	.	-8	.
22	O=C(c1cc(-c2ccncc2)nc2ccc(Br)cc12)N1CCN(c2ccccn2)CC1	3	-6	3	0
23	COc1cccc(-c2nc(-c3ccc(NC(=O)Cc4ccccc4OC)cc3)no2)c1	4	13	1	1
24	CCSc1ncccc1-c1nc2ccccc2[nH]1	12	10	1	4
25	COc1ccccc1NC(=S)N1C2CCC1CC(NC(=O)NC13CC4CC(CC(C4)C1)C3)C2 (centres undefined)	.	.	-3	.
26	CCN(CC)S(=O)(=O)c1ccc(Nc2ccc(-c3ccc4c(c3)OCCO4)nn2)cc1	-12	-1	9	0
27	CCOC(=O)c1c(NC(=O)CSc2nnnn2-c2ccccc2)sc2c1CCC(C)C2 (centres undefined)	-5	-1	1	3
28	c1ccc2c(c1)Cn1c-2nc2ccccc21	5	-6	.	8
29	COC(=O)c1cccc(S(=O)(=O)N2CCC(NC(=O)NC34CC5CC(CC(C5)C3)C4)CC2)c1	-5	10	0	.
30	CCC(C)(C)n1nnnc1C(c1cccs1)N1CCc2ccccc21 (centres undefined)	3	-4	-1	1

item	ERa SRC1 pot	MT1-MMP txn act	Mac1 fbg inh
21	.	.	52
22	96	1.1	2
23	197[fluorescence artefact?]	1.1	-28
24	104	1.4	-2
25	.	.	17
26	111	1.2	12
27	112	1.1	-9
28	110	0.7	.
29	108	0.9	-8
30	79	1	43

In the list so far, two contain a cyano group.
item	SMILES	Smad3 inh	ERb SRC1 inh	Mac1 fbg enh	Calb biofilm kill
7	COc1ccc(C(C#N)Nc2ccc(C)cc2)cc1 (centres undefined)	7	-7	-1	6
15	CCC(C)(C)n1nnnc1CN1CCN(c2nc3cc(OC)ccc3cc2C#N)CC1	12	18	0	6

item	ERa SRC1 pot	MT1-MMP txn act	Mac1 fbg inh
7	113[fluorescence artefact?]	0.9	-8
15	198	1	-4

Gathered by group, those above containing fluorine
item	SMILES	Smad3 inh	ERb SRC1 inh	Mac1 fbg enh	Calb biofilm kill
4	COc1ccc(CNc2cccc(F)c2)cc1Br	9	-5	-3	0
8	C=CCn1c(CCNC(=O)c2ccccc2F)nnc1SCC(=O)Nc1nc(C)cs1	16	-5	6	0
13	O=C(NC1(C(F)(F)F)C(=O)Nc2c1c(=O)[nH]c(=O)n2-c1ccccc1)c1ccncc1 (centres undefined)	-11	-9	.	6
21	Cc1ccc(-c2cc(C(=O)N3N=C(C(F)F)CC3(O)C(F)F)c3ccccc3n2)cc1C (centres undefined)	.	.	-8	.

item	ERa SRC1 pot	MT1-MMP txn act	Mac1 fbg inh
4	101	1.1	6
8	124	1.2	-4
13	111	1.1	.
21	.	.	52

Other compounds follow:
item	SMILES	Smad3 inh	ERb SRC1 inh	Mac1 fbg enh	Calb biofilm kill
31	COCCn1c(=S)[nH]c2cc(C(=O)NCCc3ccc(OC)c(OC)c3)ccc2c1=O	-6	4[fluorescence artefact?]	5	7
32	O=C(CCSCCc1ccncc1)NCCCN1CCOCC1	-6	1	-1	6
33	CCCOC(=O)c1cccc(NC(=O)C(C)(C)C)c1	1	-9	11	5
34	COCCCN1C(=O)c2[nH]nc(-c3cc(C)cc(C)c3O)c2C1c1ccc(O)c(OC)c1 (centres undefined)	-1	32[fluorescence artefact?]	-3	1
35	Cn1ncc(Cl)c1C(=O)Nc1ccncc1	6	-6	.	1
36	COc1ccc(/C=C2\N=C(SC)SC2=O)cc1OC	-6	8	.	3
37	O=C(Cn1cccc1)NCc1cccs1	1	-6	-9	1
38	O=C(COn1nnc2ccc(Cl)cc21)NC12CC3CC(CC(C3)C1)C2	-6	1	-1	-1
39	COc1ccc(-c2nc(C(N)=O)c3[nH]c(=O)n(-c4cccc(Cl)c4)c3n2)cc1OC	12	48[fluorescence artefact?]	37	2
40	COc1ccc(C(=O)c2no[n+]([O-])c2C(=O)c2ccc(OC)cc2)cc1	.	.	4	.

item	ERa SRC1 pot	MT1-MMP txn act	Mac1 fbg inh
31	179[fluorescence artefact?]	1.2	-9
32	114	1.2	-14
33	131	1.2	-50
34	71	1.3	21
35	99	1.2	.
36	106	1.2	.
37	111	1	11
38	84	1.4	-15
39	96[fluorescence artefact?]	1.3	62
40	.	.	17

Carrying on.
item	SMILES	Smad3 inh	ERb SRC1 inh	Mac1 fbg enh	Calb biofilm kill
41	CCCc1nc(NCc2ccncc2)c2nnn(Cc3ccccc3F)c2n1	-2	-10	.	-4
42	COc1ccc(Cl)cc1NC(=O)C1CCCN(c2cc(C)nc3ncnn23)C1 (centres undefined)	6	-4	-1	6
43	CCOC(=O)c1nnn(CC(=O)Nc2ccccc2OC)c1C(=O)OCC	-10	7	-3	8
44	COc1ccccc1NC(=O)C1=C(C)Nc2nnnn2C1c1ccncc1 (centres undefined)	5	-10	-1	5
45	COC(=O)c1cccc(S(=O)(=O)N2CCC(NC(=O)Nc3cccc(F)c3)CC2)c1	5	6[fluorescence artefact?]	5	3
46	CCn1c(CNc2ccc(C)cc2)nnc1SCC(N)=O	-10	-17	.	5
47	O=C(NCc1ccc(F)cc1)C1CC(=O)N(CCc2ccccc2)C1 (centres undefined)	1	3[fluorescence artefact?]	1	4
48	Cc1ccc(CNC(=O)C(C)OC(=O)c2cccs2)cc1 (centres undefined)	10	10	-1	9
49	COc1ccccc1NC(=O)CSc1ccc2nnc(-c3cccnc3)n2n1	-9	-1	.	-9
50	Cc1cc(C(F)(F)F)c2c(n1)sc1c(O)cc(=O)[nH]c12	13	-4	-2	7

item	ERa SRC1 pot	MT1-MMP txn act	Mac1 fbg inh
41	192[fluorescence artefact?]	1.3	.
42	133	1.1	2
43	103	.	-46
44	96	1	4
45	105	1.2	9
46	116	1.2	.
47	108	1.1	13
48	117	1.1	-5
49	91	1.1	.
50	95	1.2	2

Later entries
item	SMILES	Smad3 inh	ERb SRC1 inh	Mac1 fbg enh	Calb biofilm kill
51	COc1cc(-c2cc(OC)c3c(C)oc(C)c3c(=O)c2)ccc1O	-5	22	-1	5
52	CCOc1cc(C2/C(=C(/O)c3ccc(OC(C)C)cc3)C(=O)C(=O)N2CCCOC)ccc1O (centres undefined)	3	-8	.	4
53	CCOc1ccc(-c2cc(C(=O)O)c3ccccc3n2)c(OCC)c1	8	4	.	5
54	CC(C)Sc1nc(O)c(Cc2ccccc2)c(=O)[nH]1	2	-6[fluorescence artefact?]	0	9
55	CC(C)c1nc(NCC2CCCO2)c(C#N)c2c1COC(C)(C)C2 (centres undefined)	13	-7	5	7
56	CC(/C=N/NC(=O)c1n[nH]c2c1CCC2)=C\c1ccccc1	8	-15	-4	3
57	Cc1nn(-c2ccccc2)c2[nH]c(=O)c(CNCc3ccc4c(c3)OCO4)cc12	-7[fluorescence artefact?]	1	-3	-3
58	C/C(=N/NC(=O)c1cccc(C)c1)c1c(O)cc(C)oc1=O	4	-8	.	5
59	CCc1ccc(C2C(C(=O)O)c3ccccc3C(=O)N2C)cc1 (centres undefined)	10	-1	-3	1
60	CCOC(=O)Nc1cccc(NC(=O)c2cc(OC)cc(OC)c2)c1	16[fluorescence artefact?]	-20	.	4

item	ERa SRC1 pot	MT1-MMP txn act	Mac1 fbg inh
51	73[fluorescence artefact?]	1.1	4
52	110	1.1	.
53	96	1.5	.
54	109	.	-8
55	78	0.9	-30
56	98	0.6	14
57	81	1	-10
58	102	1.3	.
59	104	1.2	8
60	125	1	.

Compound activity: PubChem, several laboratories

These rows are one share of the data (hit frequency here may not be typical).
